Beta2AR agonist – beta2AR agonists driving receptor internalization, primary screen, cell-based, FAP fluorogen, flow cytometry. Am2.2-beta2AR cells; reference of the scale not given here. Beta-2 adrenergic receptor (Homo sapiens), P07550. response, % (no concentration beside the values). 340,000 tested, 0.43% active;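 active = response above a set limit, near 3 SD of response in nonfluorescent compounds, cut at about 42% in these data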;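 also: stock transfer was 100 nL into about 11 µL; a reference agonist was the positive control; negative values mostly stem from fluorescent compounds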
Target sequence (P07550 whole entry, looked up): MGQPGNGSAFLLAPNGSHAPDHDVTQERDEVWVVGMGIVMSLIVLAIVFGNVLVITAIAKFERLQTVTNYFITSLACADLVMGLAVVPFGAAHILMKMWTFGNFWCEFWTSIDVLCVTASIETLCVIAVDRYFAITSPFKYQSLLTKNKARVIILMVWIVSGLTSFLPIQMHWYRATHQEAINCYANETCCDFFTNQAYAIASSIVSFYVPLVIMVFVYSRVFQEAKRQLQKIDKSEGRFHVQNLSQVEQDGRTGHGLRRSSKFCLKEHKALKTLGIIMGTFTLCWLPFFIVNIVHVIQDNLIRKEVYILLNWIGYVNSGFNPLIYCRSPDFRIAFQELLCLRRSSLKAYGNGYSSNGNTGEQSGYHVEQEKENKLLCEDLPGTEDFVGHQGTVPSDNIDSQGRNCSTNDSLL
UCH37 inh – inhibitors of human UCH37 deubiquitinase, primary screen, biochemical, Ub-AMC cleavage, fluorescence; Ubiquitin carboxyl-terminal hydrolase isozyme L5 (Homo sapiens), Q9Y5K5; inhibition, % (test concentration not listed); AID 588478, 2011; 330,000 tested, 0.33% active; purified proteasome/UCH37;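 active = mean of two replicates above 20%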;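 also: 0% = compound-free wells with enzyme and 100% = wells lacking proteasome; stock transfer was 100 nL into about 20 µL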
Target sequence (Q9Y5K5 whole entry, looked up): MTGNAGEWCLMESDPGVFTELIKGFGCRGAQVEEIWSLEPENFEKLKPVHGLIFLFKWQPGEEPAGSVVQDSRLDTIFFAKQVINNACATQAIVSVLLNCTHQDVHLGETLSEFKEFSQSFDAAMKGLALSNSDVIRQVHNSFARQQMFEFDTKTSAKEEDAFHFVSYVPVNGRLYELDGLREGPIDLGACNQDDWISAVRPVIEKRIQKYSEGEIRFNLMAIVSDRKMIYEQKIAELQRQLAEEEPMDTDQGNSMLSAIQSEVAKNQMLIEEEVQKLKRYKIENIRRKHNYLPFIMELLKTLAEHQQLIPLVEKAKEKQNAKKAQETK
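Material: human UCH37 enzyme supplied as purified proteasome complex. Measure: % inhibition of Ub-AMC cleavage fluorescence. Medium: pH 7.4 Tris-HCl (50 mM) with ovalbumin, ATP-MgCl2, DTT. Times: 30 min preincubation with enzyme, 25 min cleavage at room temperature. Detection: AMC fluorescence intensity at 355/460 nm.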
ALR inh – inhibitors of human ALR sulfhydryl oxidase, primary screen, biochemical, H2O2 detection, HRP-luminol luminescence, single point; FAD-linked sulfhydryl oxidase ALR (Homo sapiens), P55789; purified ALR, DTT oxidation; inhibition, % (test concentration not listed); 290,000 tested, 3.8% active; AID 485317, 2010;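 active = mean and each replicate at 75% or more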;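 also: stock transfer was 7.5 nL into about 7.5 µL; 0% = neutral wells and 100% = wells with inactivated enzyme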
FGF22 binding – binders of human FGF22 protein, primary screen, FGF22 synaptogenesis inhibitor project, biophysical, thermal shift, single point; Fibroblast growth factor 22 (Homo sapiens), Q9HCT0; recombinant FGF22 thermal shift, SYPRO orange fluorescence; percent of sucrose octasulfate shift, DMSO zero; calls only at 9.99 µM; 340,000 tested, 1.5% active; AID 651658, 2012;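 active = melting point raised past a set limit in the mean and every replicate; three in four hits are not shown here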
Target sequence (Q9HCT0 whole entry, looked up): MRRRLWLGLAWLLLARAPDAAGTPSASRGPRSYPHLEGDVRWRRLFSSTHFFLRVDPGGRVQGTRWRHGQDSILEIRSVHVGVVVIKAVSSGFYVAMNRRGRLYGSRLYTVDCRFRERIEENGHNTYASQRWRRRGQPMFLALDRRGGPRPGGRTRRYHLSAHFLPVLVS
HNF4A DNA FP – change in binding of human HNF4A to DNA, primary screen, biochemical, fluorescence polarization, FITC-DNA. Hepatocyte nuclear factor 4-alpha (Homo sapiens), P41235. 1 h. activity change, % at 10 µM. 360,000 tested, 0.3% active. AID 1224865, 2016; in the data active = activity change above about 30%, passing the limit was not always enough;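 also: controls were the assay level and a saturating level of protein; the project sought stronger binding though the title names inhibitors; some compounds called inactive have numbers as strong as hits; positive values seem to mean higher polarization but the record does not say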
rRNA inh HTS – reduced GFP signal of wild-type E. coli, primary screen, bacterial rRNA inhibitor project, GFP/RFP fluorescence, OD600, single point; E. coli WT GFP vs humanized-ribosome RFP mutants, 24 h; stronger effect = lower value; DMSO median 0, no signal -100; GFP signal change (wild-type ribosome), % (test concentration not listed); 350,000 tested, 1.6% active; AID 720706, 2013;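 active = significant combined selectivity score with lowered wild-type GFP, culture density cut under 30%, mutant RFP and density less affected; inactive = any of these conditions unmet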; also: one replicate is shown; some compounds called inactive have numbers as strong as hits
Ecoli growth – E. coli growth inhibition, primary screen, OD600. Escherichia coli growth, 23 h; stronger effect = lower value. OD600 absorbance (test concentration not listed). 330,000 tested, 0.21% active. AID 1053175, 2014;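 active = OD600 absorbance below the run mean of sample wells minus 3.6 SD, in any replicate, cut at about 0.56 in these data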;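 also: stock transfer was 300 nL into about 60 µL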
rRNA inh HTS OD600 – further read-out of rRNA inh HTS, marked with its call; OD600 change, %; measured here: OD600 growth;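 optical density of the mix in the first replicate; 0 = DMSO median and -100 = no signal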
rRNA inh HTS RFP – further read-out of rRNA inh HTS, marked with its call; RFP signal change, %; measured here: RFP humanized mutant strains;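 first replicate; 0 = DMSO median and -100 = no signal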
An asterisk follows results filed as active. These rows are one share of the data (hit frequency here may not be typical).

For CN(C)C(=O)CN1C(=O)C2CC=C(Cl)CC2C1=O (stereo not drawn) the results were Beta2AR agonist -0.5, UCH37 inh 0.3, ALR inh 0.2, FGF22 binding inactive, HNF4A DNA FP -1.9, rRNA inh HTS 6.7, Ecoli growth 0.674, rRNA inh HTS OD600 7.3 and rRNA inh HTS RFP 2.1.
Cc1cccn2c(CN(C)C3CCCc4ccccc43)c(C(=O)N3CCOCC3)nc12 (stereo not drawn) was read as Beta2AR agonist -2.5, UCH37 inh 1.4, ALR inh -0.2, FGF22 binding inactive, HNF4A DNA FP -1.8, rRNA inh HTS -28.0, Ecoli growth 0.669, rRNA inh HTS OD600 -40.7 and rRNA inh HTS RFP -4.3.
For Cc1c(Br)c([N+](=O)[O-])nn1CC(=O)NC1CCCCCC1 the results were Beta2AR agonist -1.4, UCH37 inh 6.9, ALR inh -3.8, FGF22 binding inactive, HNF4A DNA FP -2.8, rRNA inh HTS -6.1, Ecoli growth 0.667, rRNA inh HTS OD600 7.1 and rRNA inh HTS RFP -1.7.
`CC(NC(=O)c1ccnn1C)C1CCCO1` (stereo not drawn) gave Beta2AR agonist 1.8, UCH37 inh -1.2, ALR inh -1.5, FGF22 binding inactive, HNF4A DNA FP -3.1, rRNA inh HTS 8.6, Ecoli growth 0.688, rRNA inh HTS OD600 4.1 and rRNA inh HTS RFP -1.9.
Screening CC(C)(C)c1ccc(C(=O)N2CCC(=O)N(C(COCc3ccccc3)Cc3ccccc3)CC2)cc1 (stereo not drawn) returned Beta2AR agonist 12.5, UCH37 inh 2.8, ALR inh -9.8, HNF4A DNA FP -0.3 and Ecoli growth 0.729.
Screening O=c1c2c3c(sc2ncn1/N=C/c1ccccc1)CCCC3 returned Beta2AR agonist -3.8, ALR inh 0.8 and HNF4A DNA FP 3.1.
CNC(=O)c1[nH]cnc1C(=O)Nc1cccc(OC)c1 was read as Beta2AR agonist 5.8, UCH37 inh 6.3, ALR inh 5.0, HNF4A DNA FP 3.5 and Ecoli growth 0.729.
For CC(C)(C)C1=Nn2c(nnc2-c2ccccc2F)SC1 the results were Beta2AR agonist 2.3, UCH37 inh 0.7, ALR inh -3.2, FGF22 binding inactive, HNF4A DNA FP 0.1 and Ecoli growth 0.67.
Screening CCNC(=O)C1(C)CCN(C(=O)c2ccccc2OC(F)(F)F)C1 (stereo not drawn) returned FGF22 binding inactive, HNF4A DNA FP 1.3, rRNA inh HTS 3.4, rRNA inh HTS OD600 7.5 and rRNA inh HTS RFP 0.7.
O=C(NNC(=O)C12CC3CC(CC(Br)(C3)C1)C2)c1ccccc1F was read as Beta2AR agonist -3.6, UCH37 inh 1.8, ALR inh 20.6, FGF22 binding inactive, HNF4A DNA FP -5.7, rRNA inh HTS 4.8, Ecoli growth 0.717, rRNA inh HTS OD600 1.8 and rRNA inh HTS RFP 4.0.
CCCOc1ccc(C(=O)NCCC(=O)NCCCC(=O)O)cc1 was read as Beta2AR agonist -13.3, UCH37 inh 6.0, ALR inh -19.1, FGF22 binding inactive, HNF4A DNA FP -0.5, rRNA inh HTS 6.4, Ecoli growth 0.649, rRNA inh HTS OD600 6.5 and rRNA inh HTS RFP 1.2.
`Cc1ccc(OCCOCCn2ccnc2)c(Br)c1` gave Beta2AR agonist 1.0, UCH37 inh -2.8, ALR inh -2.2, HNF4A DNA FP 1.2 and Ecoli growth 0.698.
Screening Cc1cc(Nc2ccc(Br)cc2)nc(-c2ccccc2O)n1 returned Beta2AR agonist -6.2, UCH37 inh -13.4, ALR inh 2.2, FGF22 binding inactive, HNF4A DNA FP -1.5, rRNA inh HTS 9.2, Ecoli growth 0.746, rRNA inh HTS OD600 7.0 and rRNA inh HTS RFP 0.0.
Screening O=C1c2ccccc2C(=O)N1CCn1ccnc1 returned Beta2AR agonist 1.9, UCH37 inh 2.3, ALR inh -8.6, FGF22 binding inactive, HNF4A DNA FP 0.5, rRNA inh HTS 33.8, Ecoli growth 0.695, rRNA inh HTS OD600 21.7 and rRNA inh HTS RFP 1.8.
Cc1ccccc1-n1nnnc1SCC(=O)NCC1(N2CCOCC2)CCCCC1 was read as Beta2AR agonist 5.8, UCH37 inh 0.4, ALR inh -2.2, FGF22 binding inactive, HNF4A DNA FP 5.4, rRNA inh HTS 5.2, Ecoli growth 0.692, rRNA inh HTS OD600 -15.3 and rRNA inh HTS RFP -0.8.
CS(=O)(=O)c1ccccc1C(=O)Nc1cccc2ncccc12 was read as Beta2AR agonist -4.0, UCH37 inh 0.3, ALR inh -5.7, FGF22 binding inactive, HNF4A DNA FP -5.4, rRNA inh HTS -4.0, Ecoli growth 0.676, rRNA inh HTS OD600 -3.9 and rRNA inh HTS RFP 0.4.
For O=C(Nc1cccc(-c2cn3ccsc3n2)c1)c1ccccc1 the results were Beta2AR agonist -3.8, UCH37 inh 5.9, ALR inh 91.3*, HNF4A DNA FP 3.5 and Ecoli growth 0.665.
For COc1cccc(NC(C)=[N+](C)CCNS(=O)(=O)c2ccc(Cl)cc2)c1 the results were Beta2AR agonist -3.9, UCH37 inh 0.8, ALR inh 7.7, FGF22 binding inactive, HNF4A DNA FP -1.6, rRNA inh HTS 7.2, Ecoli growth 0.668, rRNA inh HTS OD600 8.4 and rRNA inh HTS RFP 2.7.
Screening O=C(COC(=O)C12CC3CC(CC(O)(C3)C1)C2)Nc1ccc(Cl)cc1F returned Beta2AR agonist 4.5, UCH37 inh 0.9, FGF22 binding inactive, HNF4A DNA FP 1.9, rRNA inh HTS 5.0, Ecoli growth 0.688, rRNA inh HTS OD600 -4.8 and rRNA inh HTS RFP -3.3.
`Cc1cc(OCCCCOc2ccc(S(N)(=O)=O)c(C)c2)ccc1S(N)(=O)=O` gave Beta2AR agonist 20.2, UCH37 inh 2.2, ALR inh -5.6, FGF22 binding inactive, HNF4A DNA FP -2.2, rRNA inh HTS -18.8*, Ecoli growth 0.643, rRNA inh HTS OD600 -14.9* and rRNA inh HTS RFP 2.5*.
For Cc1ccc(OCc2nc(C#N)c(N3CCCC3)o2)cc1 the results were Beta2AR agonist -8.0, UCH37 inh 2.5, ALR inh -2.7, HNF4A DNA FP 4.3 and Ecoli growth 0.683.
`COc1ccc(OC)c(C(=O)c2ccc(C(=O)Nc3ccccc3)cc2)c1` gave Beta2AR agonist -2.8, UCH37 inh -1.4, HNF4A DNA FP 0.4 and Ecoli growth 0.704.
Screening O=C(COC(=O)Cc1cccs1)NCC(=O)Nc1ccc(F)cc1 returned Beta2AR agonist -5.8, UCH37 inh 1.3, ALR inh -1.0, FGF22 binding inactive, HNF4A DNA FP 1.2, rRNA inh HTS 6.8, Ecoli growth 0.666, rRNA inh HTS OD600 12.6 and rRNA inh HTS RFP 2.5.
For CCCCn1c(N)c(NCc2ccccc2OC)c(=O)[nH]c1=O the results were Beta2AR agonist 9.6, UCH37 inh -6.4, ALR inh 7.4, FGF22 binding inactive, HNF4A DNA FP -0.5, rRNA inh HTS 9.8, Ecoli growth 0.683, rRNA inh HTS OD600 2.6 and rRNA inh HTS RFP 0.1.

Grouped by structure, the entries above with an NH in an aromatic ring.
CNC(=O)c1[nH]cnc1C(=O)Nc1cccc(OC)c1 was read as Beta2AR agonist 5.8, UCH37 inh 6.3, ALR inh 5.0, HNF4A DNA FP 3.5 and Ecoli growth 0.729.
For CCCCn1c(N)c(NCc2ccccc2OC)c(=O)[nH]c1=O the results were Beta2AR agonist 9.6, UCH37 inh -6.4, ALR inh 7.4, FGF22 binding inactive, HNF4A DNA FP -0.5, rRNA inh HTS 9.8, Ecoli growth 0.683, rRNA inh HTS OD600 2.6 and rRNA inh HTS RFP 0.1.

Next part:
`Cc1ccccc1OCC(=O)NC1=NCCS1` gave Beta2AR agonist -12.2, UCH37 inh -2.4, ALR inh -9.2, HNF4A DNA FP -0.9, rRNA inh HTS 3.5, Ecoli growth 0.719, rRNA inh HTS OD600 -4.4 and rRNA inh HTS RFP -0.3.
Screening O=[N+]([O-])c1ccc(Cl)c(S(=O)(=O)Nc2ccc(-c3ccc(N4CCOCC4)nn3)cc2)c1 returned Beta2AR agonist 5.5, UCH37 inh 3.1, FGF22 binding inactive, HNF4A DNA FP 3.3, rRNA inh HTS 1.9, Ecoli growth 0.642, rRNA inh HTS OD600 3.0 and rRNA inh HTS RFP -4.3.
`O=C(O)C1Nc2c(C(F)(F)F)ccc(Cl)c2C2C=CCC12` (stereo not drawn) gave Beta2AR agonist 10.1, ALR inh 8.7, FGF22 binding inactive, HNF4A DNA FP -12.9, rRNA inh HTS 5.0, rRNA inh HTS OD600 7.8 and rRNA inh HTS RFP 2.9.
CCCC(C(=O)NCc1ccco1)N(C(=O)CNS(=O)(=O)c1ccccc1)c1ccccc1OC (stereo not drawn) was read as Beta2AR agonist 8.6, UCH37 inh 4.5, ALR inh 1.2, HNF4A DNA FP -1.9 and Ecoli growth 0.786.
Screening CCCOc1ccc(/C=N/NC(=O)c2nnn(-c3nonc3N)c2-c2cccs2)cc1OC returned Beta2AR agonist -6.0, ALR inh 2.0, FGF22 binding inactive, HNF4A DNA FP 2.7, rRNA inh HTS 4.9, rRNA inh HTS OD600 9.2 and rRNA inh HTS RFP 0.2.
`CCCCn1c(N)c(N(C)C(=O)c2cn(-c3ccccc3)nc2-c2ccccc2)c(=O)[nH]c1=O` gave Beta2AR agonist 3.4, UCH37 inh 5.3, ALR inh -8.2, FGF22 binding inactive, HNF4A DNA FP 1.2, rRNA inh HTS 3.1, Ecoli growth 0.678, rRNA inh HTS OD600 4.6 and rRNA inh HTS RFP 1.2.
For COc1ccc(NC(=O)/C=C/C(=O)O)c(OC)c1 the results were Beta2AR agonist -9.1, UCH37 inh 2.2, FGF22 binding inactive, HNF4A DNA FP 2.2, rRNA inh HTS -6.4, Ecoli growth 0.708, rRNA inh HTS OD600 -13.0 and rRNA inh HTS RFP 1.6.
Cc1cccc(C)c1NC(=O)C1(C)CSCC(=O)N1Cc1cccc(F)c1 (stereo not drawn) was read as FGF22 binding inactive, HNF4A DNA FP -1.6, rRNA inh HTS -0.3, rRNA inh HTS OD600 19.8 and rRNA inh HTS RFP 3.2.
Screening COc1ccccc1NC(=S)N(Cc1ccccn1)Cc1ccccc1Cl returned Beta2AR agonist -3.8, UCH37 inh 0.2, FGF22 binding inactive, HNF4A DNA FP 6.0, rRNA inh HTS -17.9, Ecoli growth 0.686, rRNA inh HTS OD600 -17.4 and rRNA inh HTS RFP -4.9.
`COc1ccc(C2c3ccc4ccccc4c3Oc3ncn(CCCN(C)C)c(=N)c32)cc1` (stereo not drawn) gave Beta2AR agonist 34.6, ALR inh -19.9, FGF22 binding inactive, HNF4A DNA FP 9.3, rRNA inh HTS -51.5, rRNA inh HTS OD600 -79.8 and rRNA inh HTS RFP -17.0.
For COc1cc(C2=Nc3ccc(Br)cc3C(c3ccccc3)N2CC(=O)NN)cc(OC)c1OC (stereo not drawn) the results were Beta2AR agonist 2.2, UCH37 inh 6.4, ALR inh 12.4, HNF4A DNA FP 0.8, rRNA inh HTS -1.3, Ecoli growth 0.659, rRNA inh HTS OD600 -4.9 and rRNA inh HTS RFP 7.2.

High-throughput results (PubChem)
